ID4 SMM – binders of human ID4 protein; small molecule microarray, Flag-ID4 binding, fluorescence F/B; calls only; 31,000 compounds, 1.2% hits; P47928;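 active = spot signal over background at p below 0.07 in all four prints; compounds were printed on slides so no solution concentration is given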;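 also: a binder raises fluorescence above local background on the spot; about 2 pmol printed per array spot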
Target sequence (P47928 whole entry, looked up): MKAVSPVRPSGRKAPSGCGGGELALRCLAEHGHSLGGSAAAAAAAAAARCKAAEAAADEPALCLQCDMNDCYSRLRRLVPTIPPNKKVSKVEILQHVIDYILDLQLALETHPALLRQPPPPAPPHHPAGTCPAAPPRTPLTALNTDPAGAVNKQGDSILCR
Calls only; i = inactive; + = active, no number. A portion of the library, so the mix of outcomes need not match the whole.

| mol | ID4 SMM |
| --- | --- |
| C[C@@H]1CN([C@@H](C)CO)C(=O)c2cc(-c3cccc(F)c3)cnc2O[C@@H]1CN(C)C(=O)C1CC1 | i |
| Cc1ccc(-n2c(C)nnc2SCC(=O)Nc2ccc(Cl)c(C(F)(F)F)c2)cc1 | i |
| C[C@@H]1CN([C@@H](C)CO)C(=O)c2cc(C3=CCCCC3)cnc2O[C@@H]1CN(C)Cc1cccc(F)c1 | i |
| COc1ccc(C)cc1NC(=O)CSc1nnnn1-c1ccccc1 | i |
| CO[C@H](CN(C)C(=O)c1ccc2c(c1)OCO2)[C@H](C)CN([C@@H](C)CO)S(=O)(=O)c1ccc(C)cc1 | i |
| CCCNC(=O)N(C)C[C@@H]1Oc2ncc(Br)cc2C(=O)N([C@@H](C)CO)C[C@@H]1C | i |
| Cc1ccc(Cl)cc1N(CC(=O)Nc1ccc(C(N)=O)cc1)S(C)(=O)=O | i |
| C/C=C/c1cnc2c(c1)C(=O)N([C@@H](C)CO)C[C@@H](C)[C@@H](CN(C)S(=O)(=O)c1cccs1)O2 | i |
| CC(C(=O)Nc1nccs1)C1SC(=O)NC1=O (configuration not stated) | i |
| Cc1ccc(S(=O)(=O)NCC(=O)Nc2cccc(Cl)c2)cc1 | i |
| O=C(O)[C@H]1O[C@@H](Oc2c(-c3ccccc3)cc(O)c(-c3ccccc3)c2O)[C@H](O)[C@@H](O)[C@@H]1O | i |
| COc1ccc2nc(/N=C(/N)NC(=O)N3c4ccccc4Sc4ccccc43)nc(C)c2c1 | i |
| C[C@@H]1CN([C@@H](C)CO)C(=O)c2cc(/C=C/c3ccccc3)cnc2O[C@H]1CN(C)C(=O)C1CCCCC1 | i |
| COc1cccc(NC(=O)N[C@@H]2CC[C@@H](CC(=O)Nc3ccc(-c4ccccc4)cc3)O[C@H]2CO)c1 | i |
| O=C(CSc1nc2sc3c(c2c(=O)n1Cc1ccco1)CCC3)c1cc(Cl)sc1Cl | i |
| COc1ccc(NC(=O)N(C)C[C@H]2Oc3cc(C#CCN(C)C)ccc3S(=O)(=O)N([C@H](C)CO)C[C@@H]2C)cc1 | i |
| CCCCN1C(=O)NC(C(F)(F)F)(C(F)(F)F)C2=C1CC(C)(C)CC2=O | i |
| C[C@H]1CN([C@@H](C)CO)C(=O)c2cc(C#CCc3ccccc3)cnc2O[C@H]1CN(C)C(=O)C1CCC1 | i |
| O=C(C[C@H]1CC[C@@H](NC(=O)C2CC2)[C@H](CO)O1)Nc1ccccc1 | i |
| COCC(C)NS(=O)(=O)c1c(C)cc(C)cc1C (configuration not stated) | i |
| COc1ccccc1-c1noc(CCC(=O)Nc2ccccc2C)n1 | i |
| Cc1c(NC(=O)COc2ccc(C(C)(C)C)cc2)cccc1C(=O)O | i |
| COc1ccc(OCC(=O)Nc2ccc3oc(-c4ccc(C)cc4C)nc3c2)cc1 | i |
| C[C@H](NC(=O)C[C@@H]1C=C[C@H](NC(=O)Cc2ccccn2)[C@H](CO)O1)c1ccccc1 | i |
| CC(=O)N(C)C[C@H]1Oc2cc(-c3ccccc3F)ccc2S(=O)(=O)N([C@@H](C)CO)C[C@@H]1C | i |

Of the compounds above, these have a CF3 group.
| mol | ID4 SMM |
| --- | --- |
| Cc1ccc(-n2c(C)nnc2SCC(=O)Nc2ccc(Cl)c(C(F)(F)F)c2)cc1 | i |
| CCCCN1C(=O)NC(C(F)(F)F)(C(F)(F)F)C2=C1CC(C)(C)CC2=O | i |

Other compounds follow.
| mol | ID4 SMM |
| --- | --- |
| COc1cccc(CN(C)C[C@H]2OCc3ccccc3-c3ccccc3C(=O)N([C@@H](C)CO)C[C@H]2C)c1 | i |
| Cc1ccccc1-c1ccc2c(c1)O[C@H](CN(C)C)[C@H](C)CN([C@H](C)CO)S2(=O)=O | i |
| Cc1c(Br)c([N+](=O)[O-])nn1C(C)C(=O)NCc1cccnc1 (configuration not stated) | i |
| COc1ccc(-c2cnc3c(c2)C(=O)N([C@H](C)CO)C[C@@H](C)[C@H](CN(C)Cc2ccccn2)O3)cc1 | + |
| CCOC(=O)c1c(NC(=O)CSc2nc3c(cc2C#N)CCCC3)sc2c1CCCC2 | i |
| CCOc1ccccc1NC(=O)c1c(NC(=O)CN2CCOCC2)sc2c1CCC2 | i |
| Cc1cc(OCc2nc3ccccc3s2)ccc1NC(=O)c1cccc(F)c1 | i |
| COc1cc(C)c(Cl)cc1S(=O)(=O)NCc1ccccn1 | i |
| COc1cc(NC(=O)C(C)N2C(=O)C3CC=C(Cl)CC3C2=O)ccc1[N+](=O)[O-] (configuration not stated) | i |
| COc1ccccc1CC(=O)Nc1ccc(-c2noc(-c3ccccc3C)n2)cc1 | i |
| CCOC(=O)c1c(NC(=O)c2cc(-c3cccnc3)nc3c(C)cc(C)cc23)sc(C(C)=O)c1C | i |
| CSc1nc(-c2ccco2)nn1C(=O)c1ccccc1 | i |
| CCOC(=O)CSc1nc(N)c2c3c(sc2n1)COC(C)(C)C3 | i |
| O=C(COc1ccc([N+](=O)[O-])cc1)Nc1ccc2oc(-c3ccc(Br)cc3)nc2c1 | i |
| O=c1c2ccccc2nc(CSc2nnc3c4ccccc4nc(-c4ccccc4)n23)n1-c1ccccc1F | i |
| Cc1cccc(N=C2NC(=O)/C(=C/c3ccc(F)cc3)S2)c1C | i |
| COC(=O)c1ccc(NC(=O)CSc2nncc3ccccc23)cc1 | i |
| CC(=O)N(C)C[C@H]1OCc2ccccc2-c2ccccc2C(=O)N([C@@H](C)CO)C[C@H]1C | i |
| O=C(CSc1oc(-c2ccccc2)nc1S(=O)(=O)c1ccccc1)Nc1ccc(F)cc1 | i |
| C[C@H](CS)C(=O)N1CCC[C@H]1C(=O)O | i |
| O=[N+]([O-])c1cccc(S(=O)(=O)NCCCn2ccnc2)c1 | i |
| CS(=O)(=O)Nc1ccc(C(=O)NCc2cccnc2)cc1 | i |
| O=C(COc1ccccc1)Nc1cccc(Oc2ccc3c(c2)C(=O)NC3=O)c1 | i |
| O=C(C[C@H]1CC[C@@H](NC(=O)CC2CC2)[C@@H](CO)O1)NCC(F)(F)F | i |
| CCOc1c(CNCc2ccccn2)cccc1OC | i |
| Cn1nnnc1SCC(=O)Nc1cccc(Cl)c1 | i |
| Cc1ccccc1-c1cnc2c(c1)C(=O)N([C@@H](C)CO)C[C@H](C)[C@@H](CN(C)Cc1cccnc1)O2 | i |
| CO[C@@H]1CN(C)C(=O)c2ccc(NC(=O)C3CCC3)cc2OC[C@@H](C)NC[C@H]1C | i |
| C[C@H]1CN([C@@H](C)CO)S(=O)(=O)c2ccc(C3=CCCCC3)cc2O[C@H]1CN(C)Cc1ccccc1 | i |
| CCCC#Cc1cnc2c(c1)C(=O)N([C@@H](C)CO)C[C@H](C)[C@H](CN(C)S(=O)(=O)c1cn(C)cn1)O2 | i |
| O=C(O)CCC(NC(=O)c1ccc(I)cc1)C(=O)O (configuration not stated) | i |
| O=C(CSc1nc2ccccc2[nH]1)N1c2ccccc2Sc2ccccc21 | i |
| C[C@@H]1CN([C@H](C)CO)C(=O)c2cc(Br)cnc2O[C@@H]1CN(C)Cc1cccc(F)c1 | i |
| Cc1cccc(NC(=O)c2ccccc2OCC(=O)Nc2cccc([N+](=O)[O-])c2)c1C | i |
| Cc1ccc(C2C(C(=O)c3cccs3)C(=O)C(=O)N2CCN(C)C)o1 (configuration not stated) | i |
| O=C(C[C@H]1C[C@@H]2c3cc(NC(=O)Nc4ccccc4F)ccc3O[C@@H]2[C@@H](CO)O1)NCc1ccc(Oc2ccccc2)cc1 | i |
| COC(=O)c1c(NC(=S)NCc2cc(C)n(C)n2)sc2c1CCCCCC2 | i |
| O=C(CC1(O)C(=O)N(Cc2ccc(Cl)c(Cl)c2)c2ccccc21)c1ccc2c(c1)OCCO2 (configuration not stated) | i |
| O=C(C[C@@H]1C=C[C@H](NC(=O)c2ccc(F)cc2)[C@H](CO)O1)NCCc1ccccc1 | i |
| C[C@@H]1CN([C@H](C)CO)C(=O)c2cc(C#CC3CC3)cnc2O[C@@H]1CN(C)C(=O)C1CCCCC1 | i |
| CC(=O)N(C)C[C@H]1Oc2ncc(C#CCc3ccccc3)cc2C(=O)N([C@H](C)CO)C[C@@H]1C | i |
| O=C(C[C@@H]1CC[C@@H](NC(=O)c2cccc(F)c2)[C@H](CO)O1)NCc1ccccc1 | i |
| O=C(Nc1cc(F)ccc1F)N[C@@H]1C=C[C@H](CC(=O)N2CCc3ccccc3C2)O[C@@H]1CO | i |
| COc1ccc(OC(C)C(=O)Nc2cc(C)c(Cl)cc2OC)cc1 (configuration not stated) | i |
| Cc1ccc(-c2nnc(SCC(=O)Nc3ccccc3Cl)n2C)c(Cl)c1 | i |
| Cc1ccnc(NC(c2ccccn2)c2ccc3ccc(C)nc3c2O)c1 (configuration not stated) | i |
| Cc1ccc(-n2nnnc2SCC(=O)Nc2c(C)n(C)n(-c3ccccc3)c2=O)cc1 | i |
| CO[C@@H]1CN(C)C(=O)c2ccc(NC(C)=O)cc2OC[C@@H](C)N(CCc2ccccc2)C[C@H]1C | + |
| C[C@@H]1CN([C@H](C)CO)C(=O)c2cc(C3=CCCCC3)cnc2O[C@@H]1CN(C)Cc1ccccc1F | i |
| CCOC(=O)c1sc(NC(=O)CSc2ncccn2)c(C#N)c1C | i |

Reformatted: entries from further up.
Compound: O=C(O)CCC(NC(=O)c1ccc(I)cc1)C(=O)O (configuration not stated)
- ID4 SMM: i
Compound: O=C(CSc1nc2ccccc2[nH]1)N1c2ccccc2Sc2ccccc21
- ID4 SMM: i

(more compounds)
| mol | ID4 SMM |
| --- | --- |
| C[C@@H]1CN([C@H](C)CO)C(=O)c2cc(Br)cnc2O[C@@H]1CN(C)C(=O)C1CCC1 | i |
| CCOC(=O)N1CCN(C(=O)CSCC(=O)N=c2sc3ccccc3n2C)CC1 | i |
| COc1cccc(-c2cnc3c(c2)C(=O)N([C@H](C)CO)C[C@H](C)[C@H](CN(C)Cc2ccncc2)O3)c1 | i |
| c1ccc2[nH]c(SCCCN3CCCCC3)nc2c1 | + |
| C[C@@H]1CN([C@H](C)CO)C(=O)c2cccc(NC(=O)C3CC3)c2O[C@H]1CN(C)CC1CC1 | i |
| CC1CCc2c(sc(NC(=O)c3ccccc3[N+](=O)[O-])c2C(N)=O)C1 (configuration not stated) | i |
| Cc1cc(Br)ccc1NC(=O)Cn1cc([N+](=O)[O-])cn1 | i |
| COc1ccc(C#Cc2ccc3c(c2)O[C@@H](CN(C)C)[C@H](C)CN([C@H](C)CO)S3(=O)=O)cc1 | i |
| COc1ccc(Oc2ccc(NC(=O)C(C)N3C(=O)C4C5C=CC(C6CC56)C4C3=O)cc2)cc1 (configuration not stated) | i |
| COc1ccccc1S(=O)(=O)N[C@@H]1C=C[C@H](CC(=O)NCc2cccc(F)c2)O[C@@H]1CO | i |
| C=C1C(=O)O[C@H]2C3=C(C)C[C@H](OC(C)=O)C[C@]3(C)CC[C@@H]12 | i |
| COc1ccc(S(=O)(=O)N[C@H]2C=C[C@H](CC(=O)NCCc3ccccc3)O[C@H]2CO)cc1 | i |
| O=C(NCCc1ccccc1)c1noc2c1CCc1ccccc1-2 | i |
| O=C(C[C@@H]1CC[C@H](NC(=O)CC2CC2)[C@@H](CO)O1)NCC(F)(F)F | i |
| COC(=O)c1ccc(C)c(NC(=O)CN(c2cc(Cl)c(Cl)cc2Cl)S(C)(=O)=O)c1 | i |
| Cc1ccc(CN(C)C[C@H]2OCc3cn(nn3)CCCC(=O)N([C@@H](C)CO)C[C@H]2C)cc1 | i |
| Cc1c(NC(=S)NCCc2c[nH]c3ccccc23)c(=O)n(-c2ccccc2)n1C | + |
| O=C(Cc1ccccc1)N[C@@H]1C=C[C@@H](CC(=O)N2CCOCC2)O[C@@H]1CO | i |
| O=C(CSc1nc2ccccc2[nH]1)Nc1ccc(Cl)c(Br)c1 | i |
| COc1ccc(C#Cc2ccc3c(c2)O[C@H](CN(C)C)[C@H](C)CN([C@@H](C)CO)S3(=O)=O)cc1 | i |
| COC(=O)c1ccccc1NC(=O)c1ccc(N(C)S(=O)(=O)c2ccc(OC)c(OC)c2)cc1 | i |
| CSc1nnc(-c2cc(Cl)ccc2NC(C)=O)c(=O)[nH]1 | i |
| COc1ccc(Cl)cc1NC(=O)CC(C(=O)O)N1CCNCC1 (configuration not stated) | i |
| CCCC1=C(C(=O)OCC)C(c2ccco2)n2ncnc2N1 (configuration not stated) | i |
| CCOC(=O)c1ccc(CNS(=O)(=O)c2c(C)ccc3nsnc23)o1 | i |

2 records drawn at random from those above:
| mol | ID4 SMM |
| --- | --- |
| Cc1cc(Br)ccc1NC(=O)Cn1cc([N+](=O)[O-])cn1 | i |
| CCOC(=O)N1CCN(C(=O)CSCC(=O)N=c2sc3ccccc3n2C)CC1 | i |

A different layout for part of the listing above.
> CSc1nnc(-c2cc(Cl)ccc2NC(C)=O)c(=O)[nH]1
  ID4 SMM: i

> O=C(Cc1ccccc1)N[C@@H]1C=C[C@@H](CC(=O)N2CCOCC2)O[C@@H]1CO
  ID4 SMM: i

Following part.
| mol | ID4 SMM |
| --- | --- |
| C[C@@H]1CN([C@H](C)CO)C(=O)c2cccc(N(C)C)c2O[C@@H]1CN(C)C(=O)Nc1ccccc1 | i |
| COc1cc2c(cc1OC)CN(S(=O)(=O)c1ccc3c(c1)CCC(C)(C)O3)CC2 | i |
| COc1ccccc1NC(=O)N[C@@H]1CC[C@@H](CC(=O)NCc2ccc(Cl)c(Cl)c2)O[C@H]1CO | i |
| CCn1c(SCC(=O)Nc2ccc([N+](=O)[O-])cc2C)nnc1-c1ccc(Br)cc1 | i |
| C[C@@H]1CN([C@@H](C)CO)S(=O)(=O)c2ccc(-c3ccc(C#N)cc3)cc2O[C@H]1CN(C)C(=O)CN(C)C | i |
| C[C@@H]1CN([C@H](C)CO)C(=O)c2cc(-c3ccc(F)cc3)cnc2O[C@H]1CN(C)Cc1cncnc1 | i |
| C[C@@H]1CN([C@H](C)CO)C(=O)c2ccccc2-c2ccccc2CO[C@H]1CN(C)C(=O)C1CC1 | i |
| Cc1noc(C)c1NC(=O)N[C@H]1CC[C@H](CC(=O)N2CCCCC2)O[C@H]1CO | i |
| C[C@@H]1CN([C@H](C)CO)C(=O)c2cc(C#CCc3ccccc3)cnc2O[C@@H]1CN(C)C(=O)C1CCC1 | i |

Bioassay records from PubChem.
